Screens deposited in PubChem BioAssay by several laboratories.
Insulin prom inh: inhibitors of insulin promoter-driven GFP, primary screen, imaging, TRM-6 cells (human fetal islet line), eGFP reporter, cell count | reporter expression induced with tamoxifen | inhibition, % at 2 µM | 130,000 tested, 0.9% active | AID 1273, 2008;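 active = inhibition above the mean plus 3 SD, with well images judged a real hit on visual review, cut at about 60% in these data, passing the limit was not always enough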
RGS16-Gao: modulators of RGS16 binding to Galphao, primary screen, biochemical, human proteins, multiplexed bead flow cytometry | bead-based flow cytometry RGS16-Galphao binding, fluorescence; actives lie on both sides | binding response (% of control), % at 10 µM | 220,000 tested, 0.38% active;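 active = below 25% or above 175%, edge rows of some plates excepted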;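 also: Galphao activated by GDP with aluminum fluoride before binding; 100% = wells without compound and 0% = beads without RGS; some results beyond the cut were filed as inactive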
Target sequence (O15492 whole entry, looked up): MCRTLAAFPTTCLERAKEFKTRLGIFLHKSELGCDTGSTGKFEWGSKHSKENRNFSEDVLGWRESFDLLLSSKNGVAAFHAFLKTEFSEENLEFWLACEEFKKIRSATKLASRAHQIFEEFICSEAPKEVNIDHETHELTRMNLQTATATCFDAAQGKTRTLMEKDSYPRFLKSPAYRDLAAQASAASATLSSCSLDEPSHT
Target sequence (P09471 whole entry, looked up): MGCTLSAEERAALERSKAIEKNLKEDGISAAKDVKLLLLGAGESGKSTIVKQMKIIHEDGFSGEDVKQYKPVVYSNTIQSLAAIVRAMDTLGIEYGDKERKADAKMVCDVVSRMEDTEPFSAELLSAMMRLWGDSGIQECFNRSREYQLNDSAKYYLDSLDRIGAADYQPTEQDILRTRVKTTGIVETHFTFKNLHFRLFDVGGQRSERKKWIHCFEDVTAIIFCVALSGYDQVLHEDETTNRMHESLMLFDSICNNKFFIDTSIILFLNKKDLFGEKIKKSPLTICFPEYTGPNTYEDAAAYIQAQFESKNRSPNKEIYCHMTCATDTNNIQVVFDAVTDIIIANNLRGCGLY
GALR2 agonist: GALR2 receptor agonists, primary screen, cell-based. Galanin receptor type 2 (Homo sapiens), O43603. activation, %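 (tested at 5 µM)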. GALR2-expressing cells, agonist activation read-out. 140,000 tested, 0.48% active. AID 803, 2007;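 active = above mean plus 3 SD of all compounds, about 5% in these data, not always enough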;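 also: 0% = vehicle buffer wells and 100% = reference agonist at full effect; tested in CHO reporter cells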
Target sequence (O43603 whole entry, looked up): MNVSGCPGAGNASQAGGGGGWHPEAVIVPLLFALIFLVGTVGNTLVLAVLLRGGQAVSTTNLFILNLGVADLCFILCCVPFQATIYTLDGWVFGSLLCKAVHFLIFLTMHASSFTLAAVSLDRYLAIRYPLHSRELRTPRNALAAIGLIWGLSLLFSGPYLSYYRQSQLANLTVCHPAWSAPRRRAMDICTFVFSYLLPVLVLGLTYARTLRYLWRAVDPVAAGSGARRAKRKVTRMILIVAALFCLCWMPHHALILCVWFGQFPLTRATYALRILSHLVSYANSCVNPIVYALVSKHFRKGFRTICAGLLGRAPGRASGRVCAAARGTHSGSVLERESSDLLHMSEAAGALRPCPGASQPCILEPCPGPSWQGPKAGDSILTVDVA
HSV replic up: enhancers of HSV replication in host cells, fold increase, host cell viability | HSV replication augmentation in cells | maximum fold increase | 220,000 tested, 0.005% active;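 active = peak rise of 1.5-fold or more in the series; tested in PC3 cells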;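 also: first round at 10 µM; read as green reporter fluorescence; hits show the peak of a series up to 25 µM; 1 = signal of infected wells without compound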
PKD1 kinase inh: inhibitors of human PKD1 kinase, biochemical, fluorescence polarization; PKD1 kinase fluorescence polarization assay; 200,000 tested, 0.056% active; inhibition, %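 (about 10 µM by stock and volumes)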;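 active = inhibition of 50% or more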;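 also: controls were vehicle for no effect and a reference inhibitor for full effect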
Insulin prom inh cell count: further read-out of Insulin prom inh, marked with its call; normalized cell count, %; measured here: cell count, toxicity; reference of the scale not given here;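 cells exposed to compound for 48 h; stained nuclei by imaging scaled within each plate; lower means fewer cells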
HSV replic up primary fold: further read-out of HSV replic up, marked with its call; fold increase; compound at 10 µM; measured here: primary screen fold increase 10 uM; tested in PC3 cells;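 GFP signal in the first replicate; 1 = infected wells without compound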
* = called active by the depositor; i = inactive; . = no result given; [ ] = dose if it differs, or a comment.

Structure | Insulin prom inh | Insulin prom inh cell count | RGS16-Gao | GALR2 agonist | HSV replic up | HSV replic up primary fold | PKD1 kinase inh
CCOC(=O)c1sc(=NC(=O)c2cccs2)n(C)c1C | -16.7 | 130.3 | 103.5 | . | i | 1.02 | 7.1
N#C/C(C(=O)NCc1ccco1)=C1/SC(Cc2ccc(Cl)cc2)C(=O)N1c1ccccc1 (stereo unspecified) | 56.2 | 103.1 | 91.9 | -1.1 | i | 1.04 | -2.1
N#C/C(=C\c1cn(-c2ccccc2)nc1-c1cccnc1)c1nnc2n1CCCCC2 | -33.3 | 88.3 | 103.0 | 0.1 | i | 0.73 | -0.1
Cc1cc(C)n2nc(NCc3cccc(Br)c3)nc2n1 | . | . | 141.3 | -2.2 | i | 1.17 | -4.2
COc1ccccc1CC(=O)Nc1cc2oc3ccccc3c2cc1OC | -17.9 | 83.8 | 86.9 | -1.3 | i | 1 | -0.1
COc1ccc(OC)c(NC(=O)C2CCCN(S(=O)(=O)c3cccc4cccnc34)C2)c1 (stereo unspecified) | . | . | 92.3 | -2.6 | i | 0.87 | 1.6
COC(=O)c1cn(NC(=O)CC2CCCCC2)c(=O)c2ccccc12 | . | . | 101.9 | -0.1 | i | 0.92 | -10.6
CNC(=O)N1c2ccccc2NC(=O)CC1C (stereo unspecified) | . | . | 63.8 | . | i | 1.09 | -5.9
COc1cc(C(=O)Nc2nc3ccccc3[nH]2)ccc1OC(F)F | . | . | 97.0 | . | i | 1.09 | .
COc1cc(C)c(Cl)cc1S(=O)(=O)NCc1ccncc1 | 63.2 | 88.5 | 96.6 | -2.3 | i | 0.95 | 1.6
CCOCCCn1c(=S)[nH]c2cc(C(=O)NCCN(CC)CC)ccc2c1=O | . | . | 99.7 | -2.4 | i | 0.88 | -10.1
COc1ccc(N2CCN(C(=O)CCS(=O)(=O)c3ccc(OC)cc3)CC2)cc1 | . | . | 103.8 | . | i | 0.94 | 3.8
CCn1c(O)c(N=NC(=O)CNc2cccc(C)c2)c2ccccc21 | -51.5 | 88.7 | 37.4 | -0.3 | i | 0.96 | -5.5
CC1CCN(c2ncnc3c2cnn3-c2ccccc2)CC1 | . | . | 100.3 | -1.8 | i | 0.97 | -9.5
O=C(c1ccccc1)N1CCN(CC(O)COC2CCCCC2)CC1 (stereo unspecified) | . | . | 104.6 | 0.4 | i | 1.08 | -5.0

Structure | Insulin prom inh | Insulin prom inh cell count | RGS16-Gao | GALR2 agonist | HSV replic up | HSV replic up primary fold | PKD1 kinase inh
CSc1nc(C)c(Oc2ccccc2)c(=O)n1C | -14.3 | 125.6 | 93.0 | -1.6 | i | 0.88 | -6.6
CC(C)(C)c1cc(Cl)c(O)c(NC(=S)NC(=O)c2cccnc2)c1 | -13.3 | 101.1 | 109.0 | . | i | 0.88 | 3.5
O=c1c2cc(Cl)ccc2oc2nc3n(c(=O)c12)CCCS3 | -63.6 | 83.5 | 100.4 | 0.1 | i | 0.88 | -3.5
CCCc1nc(N2CCOCC2)c(C#N)c2c1CCCC2 | -14.3 | 56.7 | 92.8 | -2.5 | i | 0.953 | -5.8
CC(C)Cc1cc(C(=O)Nc2cc(Cl)ccc2Cl)no1 | . | . | 100.5 | -2.2 | . | . | -5.6
CCN(CC)CCCNC(=O)Cn1cnc2ccc(S(=O)(=O)N3CCC(C)CC3)cc2c1=O | . | . | 105.2 | . | i | 1.06 | 0.9
Cc1n[nH]c(=S)n1/N=C/c1ccc(-c2ccccc2[N+](=O)[O-])o1 | 8.6 | 123.1 | 90.2 | -2.1 | i | 0.93 | 5.5
O=C(Cc1ccc(F)cc1)Nc1cccc2cccnc12 | 10.0 | 90.7 | 121.2 | 0.7 | i | 1.02 | -6.2
Cc1nnc(SCC(=O)N2CCN(C(=O)c3ccco3)CC2)n1-c1ccccc1 | . | . | 103.2 | . | i | 0.85 | 0.0
CC(=O)[C@H]1[C@H](c2cccc(Cl)c2)C(C#N)(C#N)[C@@H]2c3ccccc3C=CN21 | . | . | 98.9 | -1.0 | i | 1.13 | 0.4
Cc1onc(-c2ccccc2)c1-c1ccnn1C(=O)NC(C)C | . | . | 104.3 | . | i | 0.96 | .
COc1ccc(CN(C)CC(=O)Nc2ccccc2C(F)(F)F)c(OC)c1 | 0.0 | 124.7 | 102.5 | -2.4 | i | 0.74 | -12.1
O=C(Nc1ccc(N2CCOCC2)cc1)C1(S(=O)(=O)c2ccccc2)CC1 | -78.3 | 134.8 | 104.1 | -0.7 | i | 0.84 | -13.5
CCCSCCCNC(=O)Cn1cc2c(n1)CCC(C)C2 (stereo unspecified) | . | . | 87.4 | -1.1 | i | 0.95 | -2.6
O=C(Oc1cccc(NC2=NS(=O)(=O)c3ccccc32)c1)c1ccncc1 | . | . | 107.5 | . | i | 0.92 | -0.8

Next section, overlapping the part above by 3 compounds.
Structure | Insulin prom inh | Insulin prom inh cell count | RGS16-Gao | GALR2 agonist | HSV replic up | HSV replic up primary fold | PKD1 kinase inh
O=C(Nc1ccc(N2CCOCC2)cc1)C1(S(=O)(=O)c2ccccc2)CC1 | -78.3 | 134.8 | 104.1 | -0.7 | i | 0.84 | -13.5
CCCSCCCNC(=O)Cn1cc2c(n1)CCC(C)C2 (stereo unspecified) | . | . | 87.4 | -1.1 | i | 0.95 | -2.6
O=C(Oc1cccc(NC2=NS(=O)(=O)c3ccccc32)c1)c1ccncc1 | . | . | 107.5 | . | i | 0.92 | -0.8
COc1ccc(C=O)cc1Cn1c(C)cc(C)c(C#N)c1=O | -5.0 | 95.5 | 109.8 | . | i | 1.04 | 7.9
COC(=O)c1ccc(C2C(C(C)=O)=C(C)Nc3ncnn32)cc1 (stereo unspecified) | . | . | 98.2 | -0.6 | i | 0.87 | -2.2
COc1ccc(NC2=CC(=O)CC(c3ccc(C)cc3)C2)c(OC)c1 (stereo unspecified) | 7.4 | 88.4 | . | -1.4 | i | 0.91 | -8.9
CC(C)Oc1cccc(C(=O)NC(=S)Nc2ccc(N3CCN(C)CC3)cc2)c1 | . | . | 92.2 | . | i | 0.92 | .
CCCn1c(=N)n(CC(=O)c2ccco2)c2ccccc21 | 54.5 | 132.2 | 104.9 | -1.7 | i | 1.05 | -16.5
c1ccc(CN(Cc2ccccc2)c2nn[nH]n2)cc1 | 15.4 | 90.7 | 107.0 | . | i | 1.06 | -5.6
C=C1CCN(C(C)C(=O)O)S(=O)(=O)c2ccccc21 (stereo unspecified) | . | . | 94.6 | . | i | 0.915 | .
COc1ccc(OC)c(NC(=O)c2ccc(NS(=O)(=O)c3c(C)noc3C)cc2)c1 | . | . | 101.3 | -1.2 | i | 1.03 | 11.9
Cc1ccc(/C(N)=N/OC(=O)C23CC4CC(CC(C4)C2)C3)cc1 | -20.4 | 127.8 | 101.1 | -0.4 | i | 1 | -3.6
O=C(c1ccncc1)N1CCN(C(=O)c2cccs2)CC1 | -4.5 | 121.1 | 96.7 | -1.1 | i | 1 | -4.2
O=C(Nc1cc(S(=O)(=O)N2CCOCC2)ccc1-n1cncn1)c1ccc(Cl)cc1 | . | . | 103.5 | . | i | 0.88 | .
COc1cccc(NC(=S)NCc2ccco2)c1 | 37.5 | 132.6 | 100.2 | -1.0 | i | 1.01 | 2.9
Cc1noc(C(=O)Nc2sc3c(c2C#N)CCC3)c1Cl | . | . | 97.3 | -0.4 | i | 1.04 | 4.9
O=C(CCCNC(=O)/C(=C/c1ccc(F)cc1)NC(=O)c1ccccc1)OCc1ccccc1 | . | . | 103.0 | 0.0 | i | 1.1 | 2.5
COc1cc(-c2c(C#N)c(N)nc(SCc3ccncc3)c2C#N)cc(OC)c1OC | . | . | 99.5 | -0.3 | i | 0.73 | -4.2

Structure | Insulin prom inh | Insulin prom inh cell count | RGS16-Gao | GALR2 agonist | HSV replic up | HSV replic up primary fold | PKD1 kinase inh
CC(C)(C)OC(=O)N/N=C\c1ccc(OC(=O)c2cccs2)cc1 | -17.2 | 84.5 | 94.1 | 0.1 | i | 0.9 | 1.6
CC(C)c1onc(C(=O)N2CCN(c3ccccc3)CC2)c1[N+](=O)[O-] | . | . | 110.7 | . | i | 0.97 | .
CC1CCCCN1CCNC(=O)CN1C(=O)COc2ccccc21 (stereo unspecified) | . | . | 101.9 | -2.6 | i | 0.95 | -10.3
COc1ccc(-n2c(NC(=O)c3ccc(Br)o3)c(C#N)c3nc4ccccc4nc32)cc1 | 16.3 | 89.9 | 224.9 | 5.4* | . | . | -5.8
COC(=O)N/N=C(\C)c1cccc(C(F)(F)F)c1 | -12.2 | 117.3 | 101.3 | . | i | 0.94 | -3.3
CC1CC(=O)c2cnc(N)nc2C1 (stereo unspecified) | -5.6 | 104.4 | 102.7 | -0.6 | i | 1.07 | -0.5
CCO[C@H]1OC(C(=O)NC2CC2)=C[C@@H](c2coc3ccccc3c2=O)[C@@H]1CCCO | . | . | 94.6 | . | i | 0.86 | -1.9
O=C(Nc1ccc(Oc2ccc(Cl)cc2)cc1)c1ncn[nH]1 | 11.5 | 69.2 | 102.2 | -0.5 | i | 0.89 | -4.0
CC(C)CCNC(=O)CCCC1=NS(=O)(=O)c2ccccc2N1 | 0.0 | 113.8 | 103.8 | -1.6 | i | 0.94 | -12.0
C[n+]1ccn(CC(=O)c2ccc(Br)cc2)c1 | 30.8 | 113.3 | 97.0 | -1.1 | i | 1.03 | 2.9
COc1ccc(C2c3c(ccc4ccccc34)Oc3ncn4nc(Cc5ccccc5)nc4c32)cc1OC (stereo unspecified) | . | . | 34.9 | 1.2 | i | 1.08 | -1.1
CC(C)NC(=O)NC(=O)COC(=O)CCCSc1nc2ccccc2s1 | . | . | 147.0 | -0.5 | i | 0.98 | -10.2
CCc1cccc(NC(=O)c2cc(OC)c(OC)c(OC)c2)c1 | 46.1 | 103.6 | 100.4 | . | i | 0.96 | -0.7
O=C1CN(C(=O)c2ccc(Br)o2)C(c2ccc(F)cc2)c2cc(F)ccc2N1 (stereo unspecified) | 18.8 | 89.3 | 103.1 | -1.2 | i | 0.94 | -8.8
Cn1nccc1NS(=O)(=O)c1ccc(C(C)(C)C)cc1 | . | . | 107.6 | . | i | 1.32 | .

Structure | Insulin prom inh | Insulin prom inh cell count | RGS16-Gao | GALR2 agonist | HSV replic up | HSV replic up primary fold | PKD1 kinase inh
CCOc1ccc(NC(=O)C2CCCN2C(=O)OCc2ccccc2)cc1 (stereo unspecified) | . | . | 103.4 | . | i | 1.1 | -0.7
Cc1nc2n(n1)CC(O)CS2 (stereo unspecified) | . | . | 99.9 | -0.3 | i | 0.68 | 2.7
O=C(COc1ccc(Br)cc1CO)Nc1ccccc1 | -64.7 | 92.2 | 102.4 | -1.2 | i | 1.01 | -0.9
Cc1ccc(C(=O)O/N=C(\N)c2ccc(Br)cc2)cc1 | -4.3 | 103.6 | 107.0 | 0.2 | . | . | -2.9
O=C(CCCOc1ccc(Cl)cc1Cl)n1nnc2ccccc21 | 15.4 | 126.0 | 181.1 | -1.0 | i | 1.11 | -2.0
CN(C)CC(=O)Nc1ccc2cn[nH]c2c1 | . | . | 102.8 | . | i | 1.12 | -1.8
CC(=O)OCc1cc(-c2nn(C)c(=O)c3ccccc23)ccc1C | 36.6 | 68.5 | 55.1 | . | i | 1.01 | 1.4
C[C@@H]1C=C(C(=O)NCc2ccccc2)O[C@H](OCc2ccc(CO)cc2)C1 | . | . | 106.9 | . | i | 0.95 | -2.1
Nc1ccc2c(c1)N1CCN=C1S2 | . | . | 101.0 | -3.1 | i | 0.79 | 4.6
OCCNCCOc1ccccc1-c1ccccc1 | -57.1 | 82.6 | 97.3 | -1.5 | i | 0.93 | -2.0
COc1ccccc1OCCOCCOc1ccc(C)cc1[N+](=O)[O-] | -8.1 | 147.0 | 294.6*[activator] | -0.2 | i | 0.91 | 0.4
O=C(CNC(=O)c1ccc(Cl)cc1)N/N=C/c1cccnc1 | . | . | 100.5 | . | i | 0.94 | .
COc1ccc(S(=O)(=O)Nc2ccc(C)cc2)cc1N(C)S(=O)(=O)c1ccc(Cl)cc1 | . | . | 41.5 | -0.2 | i | 0.72 | 1.8
Cc1ccc[n+](CC(=O)c2ccc(NC(=O)c3ccccc3)cc2)c1 | . | . | 103.0 | . | i | 0.91 | 10.2
Cc1ccccc1OCc1nc(-c2ccc(Br)o2)no1 | . | . | 108.0 | -2.8 | i | 1.02 | -5.3
CSc1c(CC(=O)Nc2ccc(F)cc2)n(Cc2ccccc2)c2ccccc12 | . | . | 102.4 | -1.8 | i | 0.89 | -2.5
